NS1 function inh = blocks influenza NS1 protein function; hit rate 0.4% among 270,000; S. cerevisiae slowed by influenza A NS1, growth recovery by OD600; Potency, µM (series often up to 46.1 µM), without a hit: top-dose activity, positive = more growth; active means well fitted rising curve with a large enough effect; inconclusive means small, poorly fitted or top-dose-only effect; inactive means no such curve, though single readings can be large or run the other way; further: nearly all actives have a fitted effect of over 50% in size
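Recovery from NS1-induced slow growth read by OD600 in budding yeast switched to galactose assay medium (pH 6.0, -URA) at 1:100 dilution. Compound 23 nl per well; the matching strain lacking NS1 serves as control.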
Cruzain noTriton = inhibitors of Trypanosoma cruzi cruzain without detergent; P25779; purified cruzain, Z-FR-AMC fluorescence, no detergent; Potency, µM, without a hit: max response, negative = inhibition, usual class: inhibitors; hit rate 2.3% among 200,000; AID 1476;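 further: plate controls were enzyme without inhibitor for no effect and buffer without enzyme for full effect; nearly all actives have a fitted effect of over 40% in size; top concentration of the series not given in the record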
Target sequence (P25779 123-467 limits assumed): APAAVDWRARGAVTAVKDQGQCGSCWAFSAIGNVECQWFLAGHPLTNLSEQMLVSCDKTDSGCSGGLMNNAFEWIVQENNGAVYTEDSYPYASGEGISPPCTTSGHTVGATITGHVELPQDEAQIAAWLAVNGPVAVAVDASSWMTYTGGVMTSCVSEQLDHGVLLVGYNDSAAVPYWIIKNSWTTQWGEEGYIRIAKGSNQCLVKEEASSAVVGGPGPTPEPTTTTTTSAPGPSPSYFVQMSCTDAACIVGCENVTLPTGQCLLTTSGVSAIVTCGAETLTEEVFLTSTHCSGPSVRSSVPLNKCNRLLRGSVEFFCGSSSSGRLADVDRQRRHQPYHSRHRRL
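Purified cruzain at 1.5 nM, pre-incubated 15 min with compound at room temperature in 100 mM sodium acetate pH 5.5, 5 mM DTT, 0.00005% Triton X-100. Reaction started with 2 uM Z-FR-AMC; AMC fluorescence increase over 60 s gives rate.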
Lassa entry inh = blocks Lassa virus binding to or entry into cells; Lassa virus pseudotype entry inhibition, cell reporter; control for the full effect not named in the record; Potency, µM (series often up to 37.9 µM), for inactives: top-dose activity change, negative = inhibition, actives largely listed as inhibitors; hit rate 1.2% among 300,000; active means well fitted inhibition curve with a large enough effect; inconclusive means small, poorly fitted or top-dose-only effect, or effect the other way; inactive means flat fitted curve, though single readings scatter; tested in HEK293 cells; further: on the % scale 0 is the no-effect control and ±100 the full control effect; nearly all actives have a fitted effect of over 50% in size; luciferase read-out
Marburg entry inh = blocks Marburg virus binding to or entry into cells. Marburg virus pseudotyped entry inhibition, cell reporter; control for the full effect not named in the record; about a third of the inactives were read at about 46 µM. Potency, µM (top dose mostly 37.8 µM), without a hit: top-dose activity change, negative = inhibition, usual class: inhibitors. hit rate 1.8% among 300,000. AID 540276; active = well fitted inhibition curve with a large enough effect; inconclusive = small, poorly fitted or top-dose-only effect, or effect the other way; inactive = flat fitted curve, though single readings scatter; tested in HEK293 cells; about a fifth of its hits are not listed in these tables; further: on the % scale 0 is the no-effect control and ±100 the full control effect; luciferase read-out
RE007 growth inh = less growth of the S. pombe RE007 Vpr strain; hit rate 0.21% among 360,000; Potency, µM (series often up to 92.2 µM), for the others: at the top dose activity change, negative = less growth; S. pombe RE007 Vpr strain, BacTiter-Glo ATP luminescence, 24 h; control for the full effect not named in the record; active = well fitted falling curve with a large enough effect; inconclusive = small, poorly fitted or top-dose-only effect; inactive = no such curve, though single readings can be large or run the other way;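 further: on the % scale 0 is the no-effect control and ±100 the full control effect; nearly all actives have a fitted effect of over 50% in size; the assay follows cell death caused by Vpr and the record does not say whether a fall means rescue or toxicity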
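Fission yeast strain RE007, carrying one chromosomally integrated HIV-1 vpr copy, was seeded at OD 0.01 in PMG+AL medium with 23 nL pinned compound. After 24 h at 30 °C and 99% humidity, viability was read by BacTiter-Glo luminescence.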
Cruzain inh Det = inhibitors of Trypanosoma cruzi cruzain with detergent | P25779 | purified cruzain, Z-FR-AMC fluorescence, 0.01% Triton | Potency, µM, without a hit: max response, negative = inhibition, most hits filed as inhibitors | hit rate 0.43% among 200,000 | AID 1478;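 further: plate controls were neutral wells for no effect and buffer without enzyme for full effect; nearly all actives have a fitted effect of over 40% in size; top concentration of the series not given in the record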
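Compounds were screened in titration against cruzain (1.5 nM) with 0.01% Triton X-100 to counter colloidal aggregation. Activity was the AMC fluorescence increase over 60 s after adding 2 uM Z-FR-AMC at pH 5.5.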
SARS PLpro yeast = blocks SARS-CoV papain-like protease in a yeast assay | S. cerevisiae expressing SARS-CoV PLpro, growth rescue; control for the full effect not named in the record | Potency, µM (doses to about 32.9 µM), for the others: at the top dose activity, positive = growth rescue | hit rate 0.19% among 330,000; active means well fitted rising curve with a large enough effect; inconclusive means small, poorly fitted or top-dose-only effect; inactive means no such curve, though single readings can be large or run the other way; further: 0% is about no effect; nearly all actives have a fitted effect of over 55% in size; growth read by luminescence after 48 h
2A StopGo = FMDV 2A StopGo reporter, luciferase signal; human cells with a luciferase reporter of 2A StopGo recoding; control for the full effect not named in the record; Potency, µM (top dose mostly 57.9 µM), without a hit: at the top dose signal change, negative = less light; hit rate 1.2% among 410,000; AID 1159524; active = well fitted falling curve with a large enough effect; inconclusive = small, poorly fitted or top-dose-only effect; inactive = no such curve, though single readings can be large or run the other way; tested in HEK293T cells; further: on the % scale 0 is the no-effect control and ±100 the full control effect; nearly all actives have a fitted effect of over 45% in size; luciferase light after 4 h
* = called active by the depositor; ? = inconclusive; . = not tested or not shown; [ ] = dose if it differs, or a comment. Unless noted, the call rests on the fitted dose curve; in most records, active means well fitted curve in the direction sought with a large enough effect; inconclusive means small, poorly fitted or top-dose-only effect, or another doubt; inactive means no such curve, though single readings can be large; an effect the other way counts as inactive or inconclusive. Potency means the concentration at half of the fitted maximal effect. Not a hit list; any-hit rate near 4.8%.

SMILES	NS1 function inh	Cruzain noTriton	Lassa entry inh	Marburg entry inh	RE007 growth inh	Cruzain inh Det	SARS PLpro yeast	2A StopGo
O=C1c2cccnc2C(=O)N1CO	-4%	-1%	0%	-12%	17%	2.4%	16%	-20%
O=C(OCc1c(F)cccc1Cl)c1cccnc1Cl	-25%	.	4%	7%[46.1 µM]	4%	.	-5%	?
CC(C)Cn1c(=O)c2ccccc2n2c(-c3ccc(Br)cc3)nnc12	.	5%	13%[46.1 µM]	-25%[46.1 µM]	.	0.5%	.	-15%
c1ccc(CCNc2ncnc3c2cnn3-c2ccccc2)cc1	-49%	-3%	?	?	-24%	-5.5%	-67%	.
CCCCNC(=O)CSc1nc(O)cc(=O)n1C1CCCC1	.	.	2%	-6%	2%	.	0%	-13%
Cc1ccc(-c2nn(-c3ccccc3)c3[nH]c(=O)c(CNCc4ccccc4)cc23)cc1	3%	?	-24%	?	11%	-4.2%	-10%	.
COc1ccc(-c2ccc(OC)c(OC)c2OC)cc1	.	.	?	?	15%	.	.	24%
Oc1ccccc1/C=N/n1c(-c2ccccc2)n[nH]c1=S	7%	.	3%	?	0%	.	-1%	4%
CCOC(=O)C1NN=C(C(=O)c2ccc(C)cc2)C1c1ccc(C)cc1 (stereo not drawn)	-76%	-22%	-18%	?	11%	-6.7%	-13%	21%
O=C(O)c1ccc(NS(=O)(=O)c2ccc(Cl)cc2)cc1	-35%	5%	-4%	3%	-10%	11%	.	-1%
Cc1ccc(NS(=O)(=O)c2sc3ccc(Cl)cc3c2C)cc1	-6%	.	-30%	12%	?	.	-2%	0%
Cc1cc(C(=O)Cn2cc(C(F)(F)F)ccc2=O)c(C)n1CC1CCCO1 (stereo not drawn)	.	.	-1%	-4%	18%	.	-1%	-2%
CCN1CCCC1CNC1=NCCCCC1 (stereo not drawn)	2%	-2%	0%	-8%	12%	1.9%	-1%	17%
CN(C)S(=O)(=O)c1ccc(NC(=O)CN2CCCc3ccccc32)cc1	.	.	?	-9%[46.1 µM]	1%	.	0%	8%
CCOC(=O)CSc1nc2nc(C)cc(C)n2n1	9%	4%	.	.	1%	1.7%	1%	4%
Cc1cc(S(N)(=O)=O)c(N)c(S(N)(=O)=O)c1	4%	.	.	.	10%	.	-1%	-7%
CS(=O)(=O)c1ccc(-c2csc(-c3cccnc3)n2)cc1	-1%	.	.	.	4%	.	-1%	5%
CCC1C2CN(C(C)=O)CC=C2C(C#N)=C(N)C1(C#N)C#N (stereo not drawn)	7%	-4%	-1%	3%	4%	-3.1%	6%	7%
Cn1c(=O)c2nc(SCCO)n(C)c2n(C)c1=O	.	.	1%[46.1 µM]	1%[46.1 µM]	-8%	.	.	5%
Cc1ccc(NC(=O)c2ccco2)c(NC(=O)CN2C(=O)c3ccccc3C2=O)c1	-17%	10%	3%	10%	-5%	1.1%	2%	-3%
N#CCCn1cc(/C=N/O)c(-c2cccc([N+](=O)[O-])c2)n1	.	.	16%	?	10%	.	5%	-3%
O=C(CSc1nnc(NC(=O)c2ccc(F)cc2)s1)NC1CC1	20%	.	-12%[46.1 µM]	?	2%	.	-11%	48%[activator]
O=C(COC(=O)c1ncc(Cl)c(Cl)c1Cl)Nc1ccc(Cl)cn1	.	.	1%	?	-14%	.	1%	-16%
C[C@]12C=CC(=O)C=C1CC[C@@H]1[C@@H]2[C@@H](O)C[C@@]2(C)[C@H]1CC[C@]2(O)C(=O)COC(=O)CCC(=O)NCCc1ccc(O)cc1	-5%	.	.	.	2%	.	-1%	-1%
CN(C)C(=O)COc1ccc(S(=O)(=O)c2ccc(OCC(=O)N(C)C)cc2)cc1	2%	.	27%[46.1 µM]	-4%[46.1 µM]	8%	.	-1%	7%
CCCCN1C(=O)/C(=C/C=C/c2ccco2)C(=O)NC1=S	5%	24%	6%	2%[46.1 µM]	-1%	-22%	3%	-7%
CCCC(C(=O)NCc1ccco1)N(C(=O)CNS(=O)(=O)c1ccccc1)C1CCCC1 (stereo not drawn)	-5%	-6%	-29%	?	-3%	1.6%	-4%	5%
CCCCCC(=O)Nc1ccccc1N1CCN(c2ccccc2)CC1	-61%	-23%	?	?	10%	-2.0%	-16%	.
O=C(Nc1cccc(-c2nn[nH]n2)c1)c1ccc(Br)s1	-13%	.	-1%	-1%	1%	.	-3%	-5%
Nc1nnc(SCC(=O)N2CCc3ccccc3C2)s1	.	.	?	2%[46.1 µM]	9%	.	0%	29%
O=C(Nc1nc2c(F)cc(F)cc2s1)C1COc2ccccc2O1 (stereo not drawn)	-79%	.	.	.	-23%	.	-9%	-7%
CCOc1ccc(CN2CCc3nc(Nc4ccc(OC)cc4OC)ncc3C2)cc1	.	-9%	?	.	.	-0.4%	.	-7%
Cc1cccc(OC2CCN(Cc3c(C(=O)N4CCCC4)nc4ccccn34)CC2)c1	0%	.	.	.	12%	.	0%	-25%
O=C(Nc1ccc(F)cc1F)c1c2c(nc3ccccc13)C(=O)N(C1CCCCC1)C2	.	2%	0%[46.1 µM]	.	.	-2.4%	.	-20%
CS(=O)(=O)NCc1nnc(SCC(=O)NC2CCCCC2)n1-c1ccc(F)cc1	-3%	18%	12%	-7%	3%	-1.5%	0%	-4%
CC(C)n1c(S(=O)(=O)O)nc2ccccc21	2%	.	2%	2%[46.1 µM]	?	.	0%	4%
CCN(CC)c1ccc(C2C(C(=O)OCCOC(C)C)=C(C)NC3=C2C(=O)CCC3)cc1 (stereo not drawn)	4%	-10%	-10%	-21%	-2%	-6.3%	7%	2%
C[C@H](NC(=O)c1nc[nH]c1C(=O)NCC(=O)OC(C)(C)C)C(=O)OC(C)(C)C	3%	.	.	.	7%	.	1%	-13%
CCN(CC)c1ccc(C2Nc3cccc4cccc(c34)N2)c(O)c1	9%	13µM*	-2%	?	14%	-8.9%	-8%	33%[activator]
COCCn1c(=NC(=O)c2ccc(S(=O)(=O)N3CCc4ccccc4C3)cc2)sc2cc(S(N)(=O)=O)ccc21	5%	?	3%	14%	-20%	-21%	21%	6%
COCCNC(=O)Cc1ccc(Br)cc1	?	0%	11%	17%	23%	3.7%	4%	20%
Cc1ccc(S(=O)(=O)N2CCN(c3ccc([N+](=O)[O-])c4cccnc34)CC2)cc1	6%	?	?	-25%	-4%	-8.2%	-15%	-9%
Cc1cc(NNC(=O)c2ccccc2)nc(NNC(=O)c2ccccc2)n1	-2%	.	-11%[46.1 µM]	-4%[46.1 µM]	0%	.	-1%	-1%
CN(C)CCN(Cc1cc2cc3c(cc2[nH]c1=O)OCO3)C(=S)NCC1CCCO1 (stereo not drawn)	0%	.	-3%	?	0%	.	0%	-5%
CCOc1cc(C(N)=O)cc(Br)c1OC	6%	-13%	3%	-5%	-7%	6.1%	7%	0%
CCN(CCCNC(=O)c1nn(-c2ccc(C)cc2)c(=O)c2c1c1ccccc1n2C)c1cccc(C)c1	.	2%	?	2%[46.1 µM]	.	-0.9%	.	?
CCCCOc1nnc(-c2ccc(OCC)cc2)c2ccccc12	.	-9%	26%[46.1 µM]	?	.	-1.0%	.	?
CCCN1C2CCCC1CC(NC(=O)Nc1cccc(C(C)=O)c1)C2 (stereo not drawn)	-1%	-9%	20%	2%	5%	-6.9%	-2%	7%
CCCCOc1ccc(-c2nnn(CC(=O)NCc3ccco3)n2)cc1	-5%	7%	?	-3%	-6%	2.4%	-3%	.
O=C(CSc1nnnn1C1CCCC1)N1CCCc2ccccc21	-11%	8%	5%	12%	13%	-0.9%	27%	.
CSCC[C@H](NC(=O)OC(C)(C)C)c1nnc(SCC(N)=O)o1	1%	-1%	2%	-1%	4%	3.3%	-3%	-8%
Cc1csc(=O)n1CC(=O)OC(C)C(=O)Nc1cccc(Cl)c1 (stereo not drawn)	.	.	1%	18%[46.1 µM]	2%	.	-3%	-9%
COC(=O)c1cccc(NC(=O)c2ccc[n+]([O-])c2)c1	27%	.	-2%[46.1 µM]	-10%[46.1 µM]	-4%	.	-3%	4%
Cc1ccc(Cl)cc1NC(=O)Cn1c(=O)c(CNc2ccccc2)cc2cc3c(cc21)OCCO3	.	?	12%[46.1 µM]	.	.	-4.0%	.	12%
NCCCCC(NC(=O)C1CCCN1C(=O)C1CSSCC(N)C(=O)NC(Cc2ccc(O)cc2)C(=O)NC(Cc2ccccc2)C(=O)NC(CCC(N)=O)C(=O)NC(CC(N)=O)C(=O)N1)C(=O)NCC(N)=O (stereo not drawn)	-10%	3%	3%	11%	.	1.6%	5%	.
CNC(=O)c1ccc(NC(=O)CN2c3cccc4cccc(c34)S2(=O)=O)cc1	.	.	-27%	-11%[46.1 µM]	0%	.	?	-8%
CC(=O)Nc1ccc(S(=O)(=O)N2CCC(C(=O)NC3CCCC3)CC2)cc1	-18%	.	.	.	-2%	.	1%	-1%
Cc1ccc(-c2nc(CS(=O)(=O)CC(=O)N3CCN(c4ccccc4)CC3)c(C)o2)cc1	.	?	?	-1%[46.1 µM]	.	-4.0%	.	-11%
CCCCSCCCNC(=O)c1ccc(CS(=O)(=O)c2ccc(OC)cc2)o1	-4%	.	?	7%	10%	.	-1%	-21%
O=[N+]([O-])c1ccc(N2CCNCC2)cc1N1CCCCCC1	6%	.	-12%[46.1 µM]	?	5%	.	1%	-19%
COc1ccc(Cl)cc1NC(=O)CN(C)C(=O)c1cccc(S(=O)(=O)N2CCN(C)CC2)c1	.	.	3%	0%	-12%	.	1%	-14%
Cc1cc2oc(=O)cc(CN3CCOCC3)c2cc1O	1%	.	-2%[46.1 µM]	12%[46.1 µM]	5%	.	-3%	2%
Cc1nc(N2CCN(c3ccccn3)CC2)c2c(C)c(C(=O)Nc3ccc(Cl)cc3)sc2n1	1%	.	.	.	1%	.	0%	?

Source: PubChem (National Center for Advancing Translational Sciences (NCATS))
